Compound activity as filed in PubChem BioAssay.
Calb FLC – C. albicans growth modulation with fluconazole; actives 0.57% (n = 300,000); growth inhibition, % (test concentration not listed); C. albicans CaCi-2 (fluconazole-resistant clinical isolate) + fluconazole, Alamar Blue growth, 48 h;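 active means most replicates above 75%; inconclusive means exactly half above 75%; inactive means most below 75%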;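 further: all wells also contain fluconazole at 8 µg/ml as a sub-toxic cotreatment; 0% = median of DMSO wells and 100% = median of geldanamycin control wells; wells of about 8 µL received 7.5 nL stock; the first replicate is given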
A1 inh – inhibitors of the anti-apoptotic protein A1, read as caspase activation; actives 0.066% (n = 330,000); caspase activation, % (no concentration beside the values); MEF A1-2A-BIM cells, Caspase-Glo 3/7 luminescence, 3 h; percent of clofoctol response, vehicle zero; AID 2462;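 active means over half of replicate activation scores above 10%, or exactly half above 10 with the replicate mean above 10; inconclusive means replicate mean below 10 yet half the replicates above 10; inactive means over half of replicates below 10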;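 further: wells of about 30 µL received 50 nL stock; many hits fall short of the cut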
Beta apoptosis – beta cell apoptosis inhibition. INS-1E cytokine-induced death, ATP luminescence, 48 h; percent of positive-control rescue, neutral wells zero. protection from apoptosis, % (test concentration not listed). actives 0.8% (n = 300,000);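 active means all replicates at 75% or more, or half of them and the mean; inconclusive means half reach 75% but not the mean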;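 further: 0% = cytokine-treated negative control wells and 100% = positive control rescue; higher means more ATP so stronger rescue from cytokine killing; wells of about 40 µL received 100 nL stock; the first replicate is given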
RanGTP-Imp inh – disruptors of Ran-importin-beta complex formation – biochemical, FRET, CFP-Ran, YFP-importin-beta, homogeneous, primary screen. inhibition, % (no concentration beside the values). actives 1.1% (n = 300,000). cell-free CFP-Ran/YFP-importin-beta FRET ratio;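 active means most replicates above 15%; inconclusive means exactly half above 15%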;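 further: 0% = DMSO wells and 100% = Ran loaded with GDP instead of GTP; wells of about 40 µL received 100 nL stock; the first replicate is given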
AF4-AF9 inh – blocks AF4 peptide binding to human AF9; P42568; AlphaScreen, biotin-AF4 peptide binding to FLAG-AF9; inhibition, % at 10 µM; actives 0.47% (n = 350,000); AID 651704;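 active means every replicate reaching a set inhibition limit, whatever the replicate mean, cut at about 25% in these data; inconclusive means mean inhibition reaches that limit but some replicates miss it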;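 further: 0% = plate neutral control median and 100% = total signal loss; the record names both 10 and 1 µM as test concentration; the first replicate is given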
Target sequence (P42568 whole entry, looked up): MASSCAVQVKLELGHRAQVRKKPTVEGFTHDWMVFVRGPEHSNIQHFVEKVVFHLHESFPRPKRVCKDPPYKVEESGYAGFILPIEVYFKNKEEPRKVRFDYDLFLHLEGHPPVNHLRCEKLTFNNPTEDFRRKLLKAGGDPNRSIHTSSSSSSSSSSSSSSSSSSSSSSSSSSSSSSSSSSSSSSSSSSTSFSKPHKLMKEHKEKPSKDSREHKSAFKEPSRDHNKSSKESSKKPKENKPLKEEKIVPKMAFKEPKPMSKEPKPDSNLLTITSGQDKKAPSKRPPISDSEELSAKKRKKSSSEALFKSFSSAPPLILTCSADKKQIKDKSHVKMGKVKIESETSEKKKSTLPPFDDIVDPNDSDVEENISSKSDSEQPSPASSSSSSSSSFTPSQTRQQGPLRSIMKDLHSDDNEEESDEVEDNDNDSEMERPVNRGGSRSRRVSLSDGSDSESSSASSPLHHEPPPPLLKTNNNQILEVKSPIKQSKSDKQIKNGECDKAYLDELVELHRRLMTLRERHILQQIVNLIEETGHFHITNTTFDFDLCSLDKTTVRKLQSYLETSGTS
Vif A3G – HIV-1 Vif–A3G interaction blockers – biochemical, TR-FRET, GST-Vif 1-94, biotin-A3G peptide, dose response retest, primary screen (AID 1117319); TR-FRET GST-Vif / biotin-A3G peptide binding; higher % means a stronger effect; test concentration not given here; strong numbers were not always called active; inhibition, %; hits with a dose series show IC50 in µM; actives 0.57% (n = 260,000);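 active means above the screen mean plus three standard deviations and confirmed in dose response; inconclusive means results disagree or hit not tested in dose response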;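 further: Vif residues 1-94 fused to GST binding biotinylated APOBEC3G peptide 110-148; 0% = full assay without inhibitor and 100% = GST in place of GST-Vif; retest series ran down from 100 µM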
T cruzi repl – T. cruzi replication inhibition. T. cruzi beta-gal in NIH3T3, luminescence, 90 h. inhibition, % (no concentration beside the values). actives 1.4% (n = 300,000). AID 1885;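 active means mean inhibition across valid replicates above about 55%, limit read from the data; inconclusive means mean below that limit but half or more replicates reach it; inactive means mean below it, under half of replicates reach it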;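 further: signal also drops with host cell toxicity which is not excluded here; 0% = plate median of DMSO wells and 100% = zero luminescence signal; higher percent means less beta-gal luminescence so fewer parasites; stock transfer was 50 nL into about 50 µL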
Ecoli rRNA inh – inhibits bacterial ribosomal RNA function over humanized ribosomes; E. coli WT GFP vs humanized-ribosome RFP mutants, fluorescence, 24 h; active compounds read low; DMSO median 0, no signal -100; GFP signal change (wild-type ribosome), % (concentration not given with the values); actives 1.6% (n = 350,000); AID 720706;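 active means significant combined selectivity score with lowered wild-type GFP, culture density cut under 30%, mutant RFP and density less affected; inactive means any of these conditions unmet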; further: one replicate is shown; some compounds called inactive have numbers as strong as hits
Ecoli rRNA inh OD600 – further read-out of Ecoli rRNA inh, marked with its call; OD600 change, %; measured here: OD600 growth;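 optical density of the mix in the first replicate; 0 = DMSO median and -100 = no signal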
Ecoli rRNA inh RFP – also measured in Ecoli rRNA inh; calls as there; RFP signal change, %; measured here: RFP humanized mutant strains;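 first replicate; 0 = DMSO median and -100 = no signal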
* = called active by the depositor; u = inconclusive; x = not tested or not shown; & = joins results of further samples. This is a subset; rates above refer to the full screens.

SMILES	Calb FLC	A1 inh	Beta apoptosis	RanGTP-Imp inh	AF4-AF9 inh	Vif A3G	T cruzi repl	Ecoli rRNA inh	Ecoli rRNA inh OD600	Ecoli rRNA inh RFP
CSc1ccc(S(=O)(=O)Nc2ccc3c(c2)OCCO3)cc1	-1	0.0	13	6.5	1.9	10%	-6	-7	-36	-3.0
Cc1ccc(NC2=CC(=O)CC(C)(C)C2)cc1Cl	-16	1.0	-1	-4.4	3.8	x	29	5	4	0.3
CCCCN1C(=O)N(c2ccccc2Cl)C(C)(O)CC1(C)C (centres undefined)	5	-0.3	4	3.7	-1.2	x	2	-18	-19	8.2
Cc1ccc(NC(=O)CC2Oc3ccccc3NC2=O)c(C)c1 (centres undefined)	3	1.3	x	0.1	2.2	2%	-16	1	5	-0.3
Nc1n[nH]c(N)c1N=Nc1ccc2c(c1)OCO2	21	-2.4	-15	3.2	0.6	x	74*	-7	8	4.8
Cc1ccc(OCc2cc(C(=O)N(C)Cc3cnc4ccccn34)no2)cc1C	1	0.2	7	2.0	1.1	x	2	-12	-41	1.4
O=C(Cc1c(F)cccc1Cl)NNC(=O)c1cccs1	x	-0.5	-6	x	7.4	x	x	0	-12	0.3
Cc1nc(NCCCn2ccnc2)c2ccccc2n1	-7	0.2	-2	-0.9	x	4%	-34	x	x	x
CCOC(=O)c1nc(C)n(-c2cc(Cl)ccc2Cl)n1	-7	-0.8	-5	2.9	x	6%	-4	x	x	x
Cc1c(CCO)c(=O)[nH]n1S(=O)(=O)c1ccc(Cl)cc1Cl	2	-0.1	-7	-0.2	0.1	x	3	2	3	-1.2
O=C(O)Cc1ccc(S(=O)(=O)Nc2ccccc2C(=O)O)cc1	-1	0.3	-5	1.8	5.7	-6%	-18	12	7	0.5
COc1ccc(C(C(=O)NC2CCCCC2)N(C(=O)CCl)c2cccc(Cl)c2)cc1 (centres undefined)	-7	2.2	99*	3.3	-4.5	x	8	1	-1	-0.3
Cc1ncoc1C(=O)Nc1ccc2c(c1)OCCO2	-10	-9.2	12	-2.4	x	5%	-17	x	x	x
CCOC(=O)C1CCN(C(=O)Cc2cccs2)CC1	-4	-1.1	-2	2.1	x	0%	-1	x	x	x
CC(=O)Cc1c(C(=O)O)c(C)nn1-c1ccccc1	-3	0.2	-4	u	-1.3	x	0	18	6	0.3
CCCc1ccc(OCc2ccc(C(=O)N/N=C/c3cccc([N+](=O)[O-])c3)o2)c(OC)c1	-28	16*	13	-3.7	x	-4%	-8	x	x	x
COc1ccc(S(=O)(=O)N(CC(=O)N2CCN(C)CC2)c2ccc(C)cc2)cc1OC	-5	0.2	x	-3.9	x	24%	-6	x	x	x
COc1cc(C(=O)Nc2ccc(-c3nnc(-c4ccco4)o3)cc2)cc(OC)c1OC	-5	-1.2	4	2.2	x	1%	-4	x	x	x
Cc1nc2oc3c(=O)[nH]cnc3c2c2c1COC(C)(C)C2	-4	-0.4	-5	9.6	3.0	20%	-8	12	3	7.5
O=c1ccc2cc(S(=O)(=O)N3CCN(c4ccccc4F)CC3)ccc2[nH]1	-2	-0.2	4	0.5	-8.6	x	-2	4	11	-1.4
CN(CC(=O)O/N=C(\N)c1ccc(Br)cc1)S(=O)(=O)c1ccccc1	1	-0.1	5	-0.8	-0.9	-5%	13	13	27	1.2
O=C(COC(=O)CNC(=O)c1ccccc1F)NCCC1=CCCCC1	4	1.1	2	-2.5	x	-2%	-12	x	x	x
NC(=O)C1CCN(c2nc(-c3ccccc3)nc3ccccc23)CC1	22	-0.1	0	-1.3	x	2%	10	x	x	x
CCOC(=O)c1sc(NC(=O)CN(CC(C)C)CC(C)C)c(C(=O)OCC)c1C	15	1.0	3	1.5	x	u	2	x	x	x
O=C(NCC1CCCO1)c1ccc(F)c2ccccc12 (centres undefined)	-3	-1.3	-1	3.9	0.1	x	-16	4	14	-2.6
(list continues)
SMILES	Calb FLC	A1 inh	Beta apoptosis	RanGTP-Imp inh	AF4-AF9 inh	Vif A3G	T cruzi repl	Ecoli rRNA inh	Ecoli rRNA inh OD600	Ecoli rRNA inh RFP
O=C(NCc1ccccn1)C1CCCN(Cc2cnn(-c3ccccc3)c2-n2cccc2)C1 (centres undefined)	u	0.1	1	-2.6	x	-3%	19	x	x	x
O=c1c2c(nc(NCCO)n1CC1CCCCC1)-c1ccccc1CC21CCCC1	3	0.7	1	4.5	x	75%	23	x	x	x
O=C(NC(=S)Nc1nc(-c2ccc([N+](=O)[O-])cc2)cs1)c1ccco1	0	-0.9	20	-1.1	-0.9	-2%	-1	8	2	-0.2
CC1CN(C(=O)COC(=O)CSc2ccc(C(N)=O)cc2[N+](=O)[O-])CC(C)O1 (centres undefined)	-3	1.2	-7	-4.0	-20	5%	-8	3	10	2.7
CCCC(=O)Oc1ccc(-c2nccc(C(OC)OC)n2)cc1	19	0.3	-2	2.1	-3.4	2%	-23	6	15	7.7
O=C(NN1C(=O)/C(=C\c2ccc(O)c([N+](=O)[O-])c2)SC1=S)c1ccccc1Cl	-17	-1.7	9	-10	13	8%	3	-1	-4	7.8
O=C(O)CC1NC(=O)N(c2ccc(Cl)cc2)C1=O (centres undefined)	4	-0.7	-2	-1.3	x	5%	1	x	x	x
CN(CCOc1ccccc1)C(=O)c1cc([N+](=O)[O-])ccc1N1CCOCC1	-7	-0.9	2	-2.1	10	-2%	11	-8	0	0.8
Cc1nc2ccccn2c1C(=O)CSc1ccccc1Cl	19	1.2	-1	2.8	x	10%	7	x	x	x
O=C(Nc1ccc(O)c(-c2nc3ccccc3o2)c1)C1(c2ccc([N+](=O)[O-])cc2)CCCC1	2	-0.5	7	4.9	x	4%	24	x	x	x
CCN(c1ccc(OC)cc1)S(=O)(=O)c1nnc(NC(=O)CC(C)C)s1	0	-0.7	5	3.3	1.0	-1%	3	2	2	0.0
COc1ccccc1C(=O)NCC(=O)NCCSc1ccc(Br)cc1	x	-1.1	1	x	1.1	4%	x	-8	-5	-4.5
CC/C(=N\NC(=O)c1ccncc1)C12CC3CC(CC(C3)C1)C2	6	0.6	1	3.5	x	0%	-4	x	x	x
O=C(O)C1CCCCC1C(=O)NCCc1ccc(Cl)cc1 (centres undefined)	0	-0.1	-6	7.0	x	7%	x	x	x	x
C/C(=N/NC(=O)c1ccc2c(c1)OCO2)c1ccc(NC(=O)C(F)(F)F)cc1	22	-1.0	5	8.3	x	-1%	-5	x	x	x
Cc1ccc(C)c(NC(=O)CCOc2ccccc2)c1	-10	0.1	1	3.3	-26	-2%	-17	10	7	0.2
COc1ccc(/C=N/NC(=O)c2cccc([N+](=O)[O-])c2)c2ccccc12	0	0.6	27	5.2	-1.7	-2%	-18	6	7	-0.1
COc1ccccc1Oc1ccc2c(c1)C(=O)N(c1ccc(C)cc1)C2=O	-6	0.0	0	2.5	x	u	8	x	x	x
CCN(CC(=O)Nc1c(F)cccc1F)C(=O)C1Cc2ccccc2CN1S(=O)(=O)CC (centres undefined)	-3	1.5	-1	x	1.0	3%	4	4	7	0.5
Cc1ccc(C)c(N2CCN(C(=O)CCCOc3cc(=O)n(C)c4ccccc34)CC2)c1	15	-1.4	94*	3.1	x	8%	26	x	x	x
CCOC(=O)C1=C(O)/C(=C/c2cc(C)n(-c3ccccc3)c2C)N=C1C	-13	-0.1	-5	3.7	x	x	15	13	4	3.2
COC(=O)Cc1nc2ccccc2[nH]1	-17	0.7	-1	5.5	x	6%	-19	x	x	x
Cc1ccc(NC(=O)CCn2c(=S)oc3ccccc32)cc1F	-1	0.2	-7	-2.9	0.4	-2%	2	15	9	-0.6
COc1ccc(NC(=O)COc2ccc(C(=O)OCC(=O)N(C)C3CCS(=O)(=O)C3)cc2OC)cc1 (centres undefined)	-2	0.9	3	-2.8	1.3	2%	-8	8	13	-1.1
CC(C)c1ccc(NC(=O)C2C3C=CC4(CN(CCCN5CCOCC5)C(=O)C24)O3)cc1 (centres undefined)	-6	0.8	-2	0.0	x	u	-7	x	x	x

Single records (already shown). Values in the order: Calb FLC	A1 inh	Beta apoptosis	RanGTP-Imp inh	AF4-AF9 inh	Vif A3G	T cruzi repl	Ecoli rRNA inh	Ecoli rRNA inh OD600	Ecoli rRNA inh RFP
COc1ccccc1Oc1ccc2c(c1)C(=O)N(c1ccc(C)cc1)C2=O reads -6	0.0	0	2.5	x	u	8	x	x	x
CCN(CC(=O)Nc1c(F)cccc1F)C(=O)C1Cc2ccccc2CN1S(=O)(=O)CC (centres undefined) reads -3	1.5	-1	x	1.0	3%	4	4	7	0.5
CCCC(=O)Oc1ccc(-c2nccc(C(OC)OC)n2)cc1 reads 19	0.3	-2	2.1	-3.4	2%	-23	6	15	7.7
CCOC(=O)C1=C(O)/C(=C/c2cc(C)n(-c3ccccc3)c2C)N=C1C reads -13	-0.1	-5	3.7	x	x	15	13	4	3.2

Continued.
SMILES	Calb FLC	A1 inh	Beta apoptosis	RanGTP-Imp inh	AF4-AF9 inh	Vif A3G	T cruzi repl	Ecoli rRNA inh	Ecoli rRNA inh OD600	Ecoli rRNA inh RFP
Cc1ccc(C(=O)Oc2ccc(Cl)c3cccnc23)cc1[N+](=O)[O-]	19	-0.2	-8	4.0	x	65%	39	x	x	x
CC1(C)CCC(=O)N(c2ccc(OC(F)(F)F)cc2)C1=O	-1	-0.3	x	-0.1	-1.9	-6%	-8	6	10	1.6
CCCCNc1ncnc2c1cnn2-c1ccc(C)cc1C	1	-0.8	6	u	0.9	-1%	14	-3	-14	-6.6
C[C@H](CO)N1C[C@H](C)[C@@H](CN(C)C(=O)Nc2ccc3c(c2)OCO3)Oc2c(NS(=O)(=O)c3ccccc3)cccc2C1=O	x	-0.3	-5	x	0.3&-2.9	x	x	-1&-3	1&-6	-2.9&10
CC1CCN(c2ccc3c(c2)S(=O)(=O)c2cccc(C(=O)NC[C@@H]4CCCO4)c2C3=O)CC1	x	-1.1	20	x	-10	x	x	-3	-4	10
COc1ccc(NC(=O)COC(=O)Cn2cnc3ccccc3c2=O)cc1OC	u	2.0	-3	0.3	0.8	x	-4	4	4	0.7
COC(=O)c1cc(Br)c(=O)n(-c2ccccc2F)c1	1	0.2	-2	-1.6	x	12%	-6	x	x	x
CC1CCN(C(=O)CSc2nc3c(c(=O)n(C)c(=O)n3C)n2C)CC1	2	0.3	-6	1.5	-2.1	u	-3	1	5	-1.4
Cc1ccc(NC(=O)COC(=O)Cc2c(F)cccc2Cl)cc1S(=O)(=O)N1CCOCC1	3	1.0	1	0.2	-1.1	-1%	-9	-4	-15	1.8
CCCCN(C(=O)c1cc(S(=O)(=O)N2CCCCCC2)ccc1OC)c1ccccc1	8	-1.2	7	0.1	1.0	4%	17	-11	-41	2.5
